Source: PubChem BioAssay
PrP 5UTR inh = suppresses PrP 5' UTR mRNA reporter expression; 340,000 tested, 0.35% active; AID 488862; inhibition, % (no concentration beside the values); cell-based PrP 5' UTR mRNA reporter, plate reader;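 active = every replicate at 50% or more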;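 note: 0 = median of the neutral control wells; tested in H4 reporter cells; numbers are from one replicate; inactives centre near -14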
Bead autofluor = compound fluorescence in toxin protease inhibitor counterscreen. 360,000 tested, 3.1% active. fluorescence intensity (no concentration beside the values). compound autofluorescence counterscreen, microsphere flow cytometry; stronger effect = higher value;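 active = at least 3 SD above the mean of all compounds, about 16000 in these data; inconclusive = too few beads counted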;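 note: 100 nL of 1 mM stock went into each well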
Sa RN4220 lethal = kills Staphylococcus aureus RN4220; inhibition, % (concentration not given with the values); 330,000 tested, 0.33% active; S. aureus RN4220 growth, OD600, 16 h;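 active = z-score of -3 or lower and OD600 up to 0.18 on both plates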;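 note: plate controls were untreated cells for no effect and reference antibiotic for full effect; stock transfer was 100 nL into about 80 µL; one replicate is shown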
ugtP null kill = kills S. aureus RN4220 lacking UgtP; 330,000 tested, 0.54% active; S. aureus RN4220 ugtP deletion, OD600 growth, 16 h; some inactives read as strong as hits; growth inhibition, % (test concentration not listed);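 active = z-score under -3 and OD600 up to 0.15 on both plates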;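 note: plate controls were untreated wells for no effect and antibiotic for full effect; wells of about 80 µL received 100 nL stock; the first replicate is given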
Mtb hypoxia inh = inhibitors of hypoxia-regulated fluorescent reporter in Mycobacterium tuberculosis; 300,000 tested, 0.1% active; M. tuberculosis hypoxia-regulated fluorescent reporter, fluorescence; fluorescence inhibition, % (concentration not given with the values);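 active = 35 to 45% if threefold the growth effect, above 45% if 1.5-fold the growth effect; inactive = the rest, general growth blockers included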;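 note: wells of about 50 µL received 100 nL stock; 0% = vehicle wells and 100% = reference inhibitor wells; whole bacteria with a GFP reporter of the hypoxia response; strong numbers were not always called active; many hits fall short of the cut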
BJeLR lethal = BJeLR cell viability loss. AID 1554. inhibition, % (no concentration beside the values). 300,000 tested, 0.17% active. BJeLR (HRASV12) viability, CellTiter-Glo ATP luminescence, 48 h; reference of the scale not given here;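 active = replicate mean above 50%; inconclusive = above 50% but judged a plate artefact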;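 note: 50 nL library stock added to about 25 µL; numbers are from one replicate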
Mtb hypoxia inh growth = also measured in Mtb hypoxia inh; calls as there; growth inhibition, %; measured here: M. tuberculosis growth (absorbance);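 0% = vehicle and 100% = reference antibiotic; read after six days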
Active calls of the source: *; ? = inconclusive; nt = not tested or not shown; & = joins results of further samples. Compounds were not picked by outcome; 4% or so of the library scored in one or more.

SMILES	PrP 5UTR inh	Bead autofluor	Sa RN4220 lethal	ugtP null kill	Mtb hypoxia inh	Mtb hypoxia inh growth	BJeLR lethal
Cc1ccc2c(CC(=O)NNC(=O)c3ccccc3O)coc2c1	-14	?	8.0	11	6	-2	-5
NC(=O)CCS(=O)(=O)c1ccccc1	-28	9739	1.6	2	6	14	13
Cc1ccc(C(=O)Nc2nc(=O)[nH]s2)cc1	-37&-29	4879&4056	3.3&3.3	2&-1	8&-6	3&1	-2&9
COc1cccc(CNC(=O)c2ccc(N3CCOCC3)c([N+](=O)[O-])c2)c1	1	3341	-3.2	6	3	0	7
O=S(=O)(NCc1nnc2c(C(F)(F)F)cc(Cl)cn12)c1ccccc1	-6	5018	1.0	-1	12	0	1
CSc1ccccc1NC(=O)c1noc2c1CCC2	-50	9885	21	-6	2	10	-10
O=C(NCCCc1ccncc1)C1CCC(=O)N(Cc2cccc(C(F)(F)F)c2)C1 (stereo not drawn)	-33	5584	-1.1	-2	0	-1	5
O=C(O)c1ccc(-c2ccccc2C(F)(F)F)o1	-12	9599	3.8	-3	6	20	-2
Cc1nc2ccccc2c(=O)n1N(c1ccccc1)c1ccccc1	-18	2200	3.6	7	4	0	-1
c1ccc(-c2[nH]ncc2-c2nc3ccccc3[nH]2)cc1	-10	6878	3.4	9	2	-5	-12
COc1cc(CCCN2C(=S)NCC2CC2CCCCC2)cc(OC)c1OC (stereo not drawn)	nt	nt	2.7	-7	-5	-8	nt
NC(=O)CSc1nc(-c2ccccc2Cl)ns1	-43	4847	6.3	-3	25	7	-1
COc1ccc(NC(=O)c2sc(NC(=O)C3CC3)nc2C)cc1	-8	3271	2.3	4	3	-7	2
CC(=O)Nc1cc(NC(C)=O)cc(C(=O)OCC(=O)N(c2ccccc2)C2CCS(=O)(=O)C2)c1 (stereo not drawn)	4	?	-0.6	-1	-2	5	nt
CCn1c(COc2ccccc2)nnc1SCC(=O)NC1CC1	6	nt	-0.5	0	9	1	1
Cc1ccc(N2C(=O)CC(Cn3nc(C)cc3C)C2=O)cc1 (stereo not drawn)	-18	3506	7.3	4	9	9	6
Cc1ccc2c(c1)c1nc3ccccc3nc1n2C	-36	3344	-4.4	15	12	3	-3
Cc1nn2c(nc1=O)NNC2(C)C(C)(C)C (stereo not drawn)	-12	5852	3.3	5	7	14	8
CN(CC(=O)NCc1ccc(Cl)cc1)S(=O)(=O)c1cccs1	-37	4411	1.8	3	7	0	-9
O=C(CCNc1n[nH]c(=O)[nH]c1=O)N/N=C/c1ccc(Cl)cc1	-23	4358	nt	nt	nt	nt	3
Nc1nnc(CCCCc2cccs2)o1	0	3011	-9.5	1	-3	5	nt
COc1ccc(C(=O)Nc2ccc(O)c3ccccc23)cc1OC	-33	3979	4.6	-9	3	0	1
COc1ccc(C2=NC(C(F)(F)F)(C(F)(F)F)c3c(n(C)c(=O)n(C)c3=O)N2)cc1	-4	9671	2.6	36	-8	4	3
CC(=O)c1ccc(NC(=O)c2ccn[nH]2)cc1	-31	22226*	-1.6	-6	-4	-7	7
C=CCn1cc(C(=O)NCC2CCCO2)c(=O)c2cc(S(=O)(=O)N3CCCCCC3)ccc21 (stereo not drawn)	-22	8025	5.8	1	-5	6	nt
COC(CN(C)C(=O)C1CCCN(S(=O)(=O)c2ccc3c(c2)oc(=O)n3C)C1)OC (stereo not drawn)	-6	4054	-1.6	-2	-4	-5	6
CC(=O)Nc1ccc(NC(=O)c2cc(-n3cnnc3)ccc2Cl)cc1	-20	3896	nt	nt	nt	nt	5
CC(C)Nc1nc(NC(C)C)nc(N(C)n2cnnc2)n1	-3	4279	0.2	0	nt	nt	-8
CC(Sc1nnc(CN2CCCC2)n1Cc1ccccc1)C(=O)Nc1ccccc1 (stereo not drawn)	-12	8860	0.9	0	8	5	nt
O=C(Cn1cnc(S(=O)(=O)N2CCCC2)c1)Nc1cccc(Br)c1	-4	5344	7.2	2	-16	-11	-12
CC/C(=N\NC(=S)Nc1cccc(C)c1)c1ccccc1	-19	2565	nt	nt	nt	nt	0
Cc1cc(NS(=O)(=O)c2ccc(NC(=O)COc3ccc(Cl)cc3Cl)cc2)no1	-8	4660	5.9	4	3	7	-18
Cc1ccc(-c2cc(C(=O)N3CCCc4ccccc43)no2)cc1	-10	2063	6.9	23	-5	5	0
CC(=O)N1N=C(c2ccc3ccccc3c2)OC12CCCC2	-45	?	6.3	21	7	8	14
O=C(Nc1ccccc1C(=O)O)c1cccc(NC(=O)c2ccc(Br)o2)c1	2	2174	5.9	-7	-1	-5	-9
COC(=O)C1=C(c2ccccc2)C[C@@H]2CC[C@H]1N2C(=O)N1CCC(C)CC1	-11	3715	nt	nt	nt	nt	5
C[C@@H]1NC(=O)/C(=C\c2ccccc2Br)NC1=O	-36	3647	4.7	9	10	6	5
Nc1nn(-c2ccccc2)c(N)c1N=Nc1ccc2c(c1)OCO2	-150	1962	5.7	-18	4	1	22
CCCCNC(=O)Nc1c(C)cc(SC#N)cc1C	-17	2547	-0.6	3	-2	1	-14
Cc1cccc(Nc2ccc(S(=O)(=O)N3CCOCC3)cc2[N+](=O)[O-])c1	-10	3720	-1.4	-6	3	9	nt
Cc1ccccc1C(=O)NC1CCS(=O)(=O)C1 (stereo not drawn)	-10	3891	1.3	3	nt	nt	-6
Oc1ccccc1C1N=C(c2ccccc2)NC(c2ccccc2)=N1	-6	22671*	-4.5	-14	4	-2	2
CCN(CC)C(=O)c1nc[nH]c1C(=O)N1CCN(C(=O)OC(C)(C)C)CC1	-3	3110	6.4	1	4	7	nt
N#Cc1c(NC(=O)CSc2nc3ccccc3s2)sc2c1CCCC2	-20	7705	1.7	-8	8	2	3
Cc1cccc(N2CCN(C(=S)NCc3ccco3)CC2)c1C	-36	2518	2.6	1	2	1	0
C/C(=N/NS(=O)(=O)c1cccc([N+](=O)[O-])c1)c1ccncc1	-11	6706	nt	nt	nt	nt	10
COc1ccc(NC(=O)CSc2nc(C)c3c(c2C#N)CCCC3)cc1	5	21814*	2.4	-5	-8	-2	-2
CCN(C(=O)C(C)OC(=O)c1nn(-c2ccccc2C(F)(F)F)cc1O)c1ccccc1 (stereo not drawn)	-18	3540	-1.7	3	6	18	nt

No new results follow: 3 of the compounds above.
SMILES	PrP 5UTR inh	Bead autofluor	Sa RN4220 lethal	ugtP null kill	Mtb hypoxia inh	Mtb hypoxia inh growth	BJeLR lethal
C/C(=N/NS(=O)(=O)c1cccc([N+](=O)[O-])c1)c1ccncc1	-11	6706	nt	nt	nt	nt	10
COc1ccc(NC(=O)CSc2nc(C)c3c(c2C#N)CCCC3)cc1	5	21814*	2.4	-5	-8	-2	-2
CCN(C(=O)C(C)OC(=O)c1nn(-c2ccccc2C(F)(F)F)cc1O)c1ccccc1 (stereo not drawn)	-18	3540	-1.7	3	6	18	nt

(continued)
SMILES	PrP 5UTR inh	Bead autofluor	Sa RN4220 lethal	ugtP null kill	Mtb hypoxia inh	Mtb hypoxia inh growth	BJeLR lethal
CCCOc1ccc(-c2nn(-c3ccccc3)cc2/C=C2\SC(N)=NC2=O)cc1C	-10	10062	0.4	-7	-3	5	-7
COc1ccc(CCNC(=O)NC23CC4CC(CC(C4)C2)C3)cc1	-13	5696	3.1	-4	9	37	20
Cc1ccc(C(=O)N2CCCC(c3ccccc3)=N2)cc1	-8	3522	-2.3	22	14	3	-4
O=C(O)CCC(=O)NCCc1cccc(Cl)c1	-12	4683	-1.6	7	3	9	nt
CNC(=O)NC(=O)CSc1nnc(C(F)(F)F)n1C	-8	3787	7.3	-2	6	7	1
Cc1nn(C)cc1C=NNC(=O)Cc1ccc([N+](=O)[O-])cc1	nt	nt	-0.4	2	1	-6	nt
CC(=O)c1ccc(OCc2cc(C(=O)N(C)Cc3nc4c(C)cccc4[nH]3)no2)cc1	-16	5188	-3.6	0	8	3	2
CC(=O)N1CCc2cc(S(=O)(=O)CCC(=O)Nc3ccc(Cl)cc3F)ccc21	-26	5530	0.2	6	4	-10	-13
COc1ccc2nc(NC(=O)CSc3nnc(-c4ccoc4C)n3C)sc2c1	-37	2749	-0.2	3	nt	nt	-10
Cc1ccnc(NS(=O)(=O)c2ccc(NC(=O)c3snnc3C)cc2)n1	4	6121	2.3	6	12	12	5
O=C(Nc1ccc(NS(=O)(=O)c2ccccc2)c(Cl)c1)c1ccccc1	-12	3733	1.1	-5	8	14	nt
C=CC(=O)NCCCc1cc(C(C)(C)C)c(O)c(C(C)(C)C)c1	-1	1986	6.9	-12	6	4	3
N#C/C(=C\c1cc2c(cc1Br)OCO2)C(=O)NCC1CCCO1 (stereo not drawn)	-14	?	0.2	0	13	0	0
Cc1c(C#N)c(N)nc2c3c(sc12)NC(=O)CC3c1ccccc1 (stereo not drawn)	9	2350	3.8	-2	13	7	-18
COc1cc(CCCN2C(=S)NC[C@@H]2Cc2ccccc2)cc(OC)c1OC	-24	3791	nt	nt	nt	nt	-10
O=C(NNC(=O)c1ccc2ccccc2c1O)Nc1ccc(F)cc1	-19	6618	-2.4	-7	3	8	-10
Cc1noc(C)c1C(=O)OCC(=O)c1cc(C)n(Cc2ccccc2Cl)c1C	-39	22970*	-3.3	15	6	11	0
Cc1nc2ccccn2c(=O)c1NC(=O)c1cccs1	-6	nt	1.7	-1	-10	-3	-2
Cc1[nH]c2ccc(OCc3ccccc3)cc2c1CCN1C(=O)OC(C)(C)C1(C)O (stereo not drawn)	-23	4784	5.0	-9	5	9	0
Cc1ccc(S(=O)(=O)Nc2ccc3ncccc3c2)cc1	-6	22694*	9.8	-6	3	4	nt
CCN(CC)S(=O)(=O)c1ccc(/C=C/C(=O)OCC(=O)Nc2ccc(C(N)=O)cc2)cc1	-23	4817	4.0	4	8	12	4
O=[n+]1cc(-c2ccc(F)cc2)n([O-])c2c1CCC2	-47	4734	-1.2	5	nt	nt	-11
O=C(Nc1ccc(NC(=O)c2cccs2)cn1)c1ccco1	-21	4581	-2.0	1	nt	nt	-5
Cc1cc(C)n(/N=C/c2cc([N+](=O)[O-])ccc2O)c(=O)c1	-4	4395	nt	nt	nt	nt	-3
O=C1C2C3CCC(C3)C2C(=O)N1CNc1ccc(F)cc1 (stereo not drawn)	-23	5317	2.5	-1	4	10	-6
CC(NC(=O)Cn1c(NCCO)nc2ccccc21)C1CC2CCC1C2 (stereo not drawn)	-18	3575	3.4	5	8	12	-1
CCOc1ccc(CONS(=O)(=O)c2ccc(NC(C)=O)cc2)cc1Cl	-13	2243	-0.5	6	-14	2	16
CC1(C)C[C@@H]2C[C@@](C)(CN2C(=O)c2ccccc2)C1	-9	4003	1.8	3	10	4	-1
O=C(O)C1CCCCC1C(=O)Nc1ccccc1Cl (stereo not drawn)	-12	3687	2.4	-8	5	11	-10
COC(=O)CN1C(c2cccc(Cl)c2)=Nc2ccc(Cl)cc2C1c1ccccc1 (stereo not drawn)	-22	2466	-9.4	28	0	8	0
COCCn1c(SCC(=O)Nc2ncc(C)s2)nc2sc3c(c2c1=O)CCC3	nt	nt	26	9	-1	0	5
CCn1c(NC(=S)Nc2ccccc2)nc2ccccc21	-53	4244	3.6	2	17	19	2
CC(c1ccc(C(C)(C)C)cc1)S(=O)CC(O)CO (stereo not drawn)	5	2636	2.5	2	-4	0	-7
Cn1c(=O)c(NCCO)c2c3c(cccc31)C(=O)c1ccccc1-2	-7	4675	4.5	-7	nt	nt	-11
CCOc1ccc(C2/C(=C(/O)c3ccc(F)cc3)C(=O)C(=O)N2CCCN(C)C)cc1 (stereo not drawn)	-15	2408	3.2	5	nt	nt	-4
CC(Sc1ccc(S(=O)(=O)N2CCOCC2)cc1[N+](=O)[O-])C(=O)O (stereo not drawn)	-13	2483	5.3	2	8	3	-6
CC(C)(C#CC(O)(c1ccccc1)c1ccccc1)N1CCCC1	-42	4288	-5.8	-15	-7	9	4
CCOC(=O)C1=C(C)N=c2sc(=Cc3ccc(C(=O)O)cc3)c(=O)n2C1c1ccc(F)cc1 (stereo not drawn)	nt	nt	9.6	0	6	6	nt
O=C(Cc1ccccc1)N/N=C/c1ccccn1	-1	7815	nt	nt	nt	nt	0
CCCCNC(=S)N(C)N=Cc1ccccc1C(=O)O	nt	nt	5.1	-5	11	0	nt
COC(=O)[C@H](Cc1ccccc1)NC(=O)C1CCN(C(=O)[C@H](C)NS(=O)(=O)c2ccc(C)cc2)CC1	-24	4878	5.8	13	16	8	-4
